ALR inh = inhibitors of human ALR sulfhydryl oxidase, primary screen, biochemical, H2O2 detection, HRP-luminol luminescence, single point; purified ALR, DTT oxidation; actives 3.8% (n = 290,000); inhibition, % (test concentration not listed);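 active means mean and each replicate at 75% or more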;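 further: stock transfer was 7.5 nL into about 7.5 µL; 0% = neutral wells and 100% = wells with inactivated enzyme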
B2AR ag = beta2AR agonists driving receptor internalization, primary screen, cell-based, FAP fluorogen, flow cytometry; AID 504454, 2011; response, % (no concentration beside the values); actives 0.43% (n = 340,000); Beta-2 adrenergic receptor (Homo sapiens), P07550; Am2.2-beta2AR cells; reference of the scale not given here;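 active means response above a set limit, near 3 SD of response in nonfluorescent compounds, cut at about 42% in these data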;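 further: stock transfer was 100 nL into about 11 µL; a reference agonist was the positive control; negative values mostly stem from fluorescent compounds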
Target sequence (P07550 whole entry, looked up): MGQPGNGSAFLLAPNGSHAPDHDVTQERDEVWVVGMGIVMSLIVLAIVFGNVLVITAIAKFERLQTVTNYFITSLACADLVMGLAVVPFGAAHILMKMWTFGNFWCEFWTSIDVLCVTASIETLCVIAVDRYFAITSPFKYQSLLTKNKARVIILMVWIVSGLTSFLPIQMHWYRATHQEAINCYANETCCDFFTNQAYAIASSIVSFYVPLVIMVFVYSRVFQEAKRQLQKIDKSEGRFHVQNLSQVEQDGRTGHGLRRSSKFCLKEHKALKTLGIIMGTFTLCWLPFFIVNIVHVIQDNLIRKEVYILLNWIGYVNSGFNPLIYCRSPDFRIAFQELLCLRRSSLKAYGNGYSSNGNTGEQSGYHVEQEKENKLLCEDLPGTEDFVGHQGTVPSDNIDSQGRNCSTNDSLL
UCH37 DUB inh = inhibitors of human UCH37 deubiquitinase, primary screen, biochemical, Ub-AMC cleavage, fluorescence. Ubiquitin carboxyl-terminal hydrolase isozyme L5 (Homo sapiens), Q9Y5K5. purified proteasome/UCH37. inhibition, % (test concentration not listed). actives 0.33% (n = 330,000). AID 588478, 2011;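 active means mean of two replicates above 20%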;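 further: 0% = compound-free wells with enzyme and 100% = wells lacking proteasome; stock transfer was 100 nL into about 20 µL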
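system = Proteasome-associated human UCH37 deubiquitinase | amount = 0.15 nM proteasome as dispensed | medium = pH 7.4 Tris-HCl (50 mM) with ovalbumin, ATP-MgCl2, DTT | incubation = 30 min preincubation with enzyme, 25 min cleavage at room temperature | detection = AMC fluorescence 355/460 nm | read-out basis = percent inhibition | controls = no-proteasome and no-compound wells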
FGF22 binding = binders of human FGF22 protein, primary screen, FGF22 synaptogenesis inhibitor project, biophysical, thermal shift, single point; recombinant FGF22 thermal shift, SYPRO orange fluorescence; percent of sucrose octasulfate shift, DMSO zero; calls only at 9.99 µM; actives 1.5% (n = 340,000); AID 651658, 2012; Fibroblast growth factor 22 (Homo sapiens), Q9HCT0;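 active means melting point raised past a set limit in the mean and every replicate; three in four hits are not shown here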
Target sequence (Q9HCT0 whole entry, looked up): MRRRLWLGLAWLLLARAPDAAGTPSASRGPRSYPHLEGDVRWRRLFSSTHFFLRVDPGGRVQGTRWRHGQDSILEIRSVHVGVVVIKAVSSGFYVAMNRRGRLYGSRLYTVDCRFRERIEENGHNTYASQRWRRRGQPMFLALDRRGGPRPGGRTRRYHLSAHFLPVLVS
HNF4A DNA FP = change in binding of human HNF4A to DNA, primary screen, biochemical, fluorescence polarization, FITC-DNA | Hepatocyte nuclear factor 4-alpha (Homo sapiens), P41235 | 1 h | activity change, % at 10 µM | actives 0.3% (n = 360,000) | AID 1224865, 2016; in the data active means activity change above about 30%, passing the limit was not always enough;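 further: controls were the assay level and a saturating level of protein; the project sought stronger binding though the title names inhibitors; some compounds called inactive have numbers as strong as hits; positive values seem to mean higher polarization but the record does not say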
Target sequence (P41235 whole entry, looked up): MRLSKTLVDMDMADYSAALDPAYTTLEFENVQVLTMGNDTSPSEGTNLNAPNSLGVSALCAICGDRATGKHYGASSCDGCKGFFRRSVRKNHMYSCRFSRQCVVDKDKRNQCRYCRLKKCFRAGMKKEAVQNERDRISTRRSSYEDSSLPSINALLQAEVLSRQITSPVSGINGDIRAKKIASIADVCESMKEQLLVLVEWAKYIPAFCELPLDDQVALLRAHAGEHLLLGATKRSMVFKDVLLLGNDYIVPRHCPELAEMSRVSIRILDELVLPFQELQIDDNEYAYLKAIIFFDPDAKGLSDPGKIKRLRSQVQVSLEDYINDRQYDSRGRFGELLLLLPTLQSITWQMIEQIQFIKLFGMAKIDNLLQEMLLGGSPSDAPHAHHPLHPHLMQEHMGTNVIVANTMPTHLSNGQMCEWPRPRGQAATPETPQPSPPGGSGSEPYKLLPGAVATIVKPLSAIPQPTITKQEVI
Ecoli growth = E. coli growth inhibition, primary screen, OD600 | Escherichia coli growth, 23 h; hits give low values | actives 0.21% (n = 330,000) | OD600 absorbance (no concentration beside the values);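 active means OD600 absorbance below the run mean of sample wells minus 3.6 SD, in any replicate, cut at about 0.56 in these data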;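 further: stock transfer was 300 nL into about 60 µL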
LANA-H2A inh = blockers of LANA interaction with H2A/H2B – biochemical, FP readout, HTS, primary screen; actives 0.6% (n = 320,000); cell-free LANA-H2A/H2B peptide, fluorescence polarization; AID 2629, 2010; inhibition, % (no concentration beside the values); in the data active means inhibition mostly above about 10%, no sharp cut-off; inactive means mostly below about 6.7%;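 further: stock transfer was 7.5 nL into about 10 µL; 0% = median of vehicle wells and 100% = median of positive control wells; one replicate is shown; the record names a cut of 25% in any replicate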
The depositor's hits bear a star; i = inactive; . = no result given; + = active, no number. Not all compounds are listed; rates above refer to the full screens.

SMILES	ALR inh	B2AR ag	UCH37 DUB inh	FGF22 binding	HNF4A DNA FP	Ecoli growth	LANA-H2A inh
CCn1ccnc1CNC(=O)c1cc(COc2ccc(F)cc2F)on1	-13.3	-4.4	0.9	i	1.7	0.68	0.6
COc1ccc(C(=O)N2N=C(c3ccc(NS(C)(=O)=O)cc3)CC2c2cccs2)cc1 (centres undefined)	-1.7	0.2	1.3	i	-0.8	0.695	1.8
O=C(CCS(=O)(=O)Cc1cccc(Cl)c1)NCCc1ccccc1	-5.9	0.1	0.2	i	1.9	0.663	3.1
CCOc1ccc(NC(=S)NC(=O)c2c(Cl)c(C)nn2C)c([N+](=O)[O-])c1	.	5.0	2.2	i	-1.9	0.698	.
Cc1ccc(NC(=S)N2CCCN(Cc3ccc(F)cc3)C2)c(C)c1	3.8	-0.2	1.7	i	2.8	0.666	0.9
COc1cc(C)c(C)cc1S(=O)(=O)N1CCN(Cc2ccc3c(c2)OCO3)CC1	-3.9	.	3.6	.	-1.9	0.73	8.0
O=C(C[C@H]1C[C@H](C(=O)N2CCOCC2)[C@@]2(CCC3CCCC3)c3[nH]c4cc(-c5ccco5)ccc4c3CCN2C1=O)NCCN1CCOCC1	.	13.1	-20.2	i	6.7	0.659	.
CCCCCCOC(=O)c1ccc(N)cc1	-30.0	-5.6	-3.8	i	-2.9	0.665	3.4
O=[N+]([O-])c1ccc(N2CCN(S(=O)(=O)Cc3ccccc3)CC2)cc1N1CCOCC1	-0.9	-1.1	9.8	.	0.7	0.699	1.4
COc1cc2nc(CN3CCOCC3)n(CC(=O)NCC(F)(F)F)c(=O)c2cc1OC	-1.3	-5.7	0.6	i	-0.9	0.7	-2.3
CSCCC(NS(=O)(=O)c1ccc(Cl)c(Cl)c1)C(=O)O (centres undefined)	12.1	6.0	0.7	+	0.6	0.701	17.3*
COc1ccc(CN2CCN(Cc3cccc(OC)c3)C(CCO)C2)cc1 (centres undefined)	8.7	2.5	-1.6	i	3.2	0.729	-1.3
COC(=O)C1=C(C)N(c2cccc(C)c2)C(=O)/C1=C\c1cccs1	-9.0	-4.6	3.6	.	-0.7	0.748	-2.7
Cc1csc(NC(=O)C2CCN(S(=O)(=O)c3ccccc3)CC2)n1	.	0.6	-0.6	i	-2.6	0.634	.
Cc1ccc(C2/C(=C(\O)c3cnn(-c4ccccc4)c3C)C(=O)C(=O)N2CCN(C)C)o1 (centres undefined)	-1.0	-7.5	7.7	.	-2.3	0.772	-6.5
S=c1[nH]nc(-c2n[nH]c3c2CCC3)n1/N=C/C=C/c1ccco1	97.5*	-4.1	.	i	-8.6	.	4.2
CCC(=O)N1CCc2cc(Br)c(S(=O)(=O)CCC(=O)NCCc3ccccc3)cc21	.	-7.4	0.6	.	-1.8	0.675	.
CN(CC(CC(=O)Nc1nncs1)c1ccccc1)S(=O)(=O)c1ccccc1 (centres undefined)	-12.8	5.3	6.3	i	0.8	0.731	1.5
Cc1ccc(NC(=O)C2CCCO2)c(Br)c1 (centres undefined)	-0.5	-0.1	3.3	i	4.8	0.653	4.3
Cc1nc2c3ccccc3n(Cc3ccccc3F)c2s1	7.5	-2.4	2.8	i	2.8	0.68	-1.9
CC(=Nc1ccccc1)C1=C(O)CSC1=O	-16.6	17.6	2.5	.	0.7	0.664	1.8
Nc1cc2c3c(cccc3c1)C(=O)N(CCN1CCCC1)C2=O	3.4	-16.4	5.5	i	-32.0	0.635	0.0
COc1ccccc1-c1nnc(SCC(=O)NC2CCCCC2)n1C	.	6.5	1.1	i	0.4	0.658	9.8
COc1ccc2oc(C)c(NC(C)=O)c2c1	-3.9	2.1	0.9	.	4.2	0.706	-1.2
COc1ccc(OCc2cc(C(=O)N(C)CC3CCCCO3)no2)c(Cl)c1 (centres undefined)	-16.0	-1.2	0.6	i	0.7	0.719	-33.8
CC1NC(=O)c2ccccc2-n2c1nc1cc(F)ccc1c2=O (centres undefined)	-4.6	.	.	i	.	.	1.3
O=C(Nc1nnc(-c2ccccc2)o1)Nc1ccc(F)cc1F	-4.0	3.9	0.6	i	0.9	0.714	-1.1
CN(CCc1ccccc1)C(=O)c1ccc(NC(=O)Cc2cccc(NC(=O)C3CCN(C(=O)c4ccccc4)CC3)c2)cc1	.	-11.8	0.1	i	-1.3	0.707	.
C1COCCNCCOCCOCCOCCN1	-28.7	1.9	7.1	.	4.0	0.695	4.6
COc1cc(C(=O)C(O)c2ccc(O)c(OC)c2)ccc1O (centres undefined)	.	-4.1	8.3	i	-0.4	0.724	.
COc1ccc(OC)c(NC(=O)Nc2ccc(Cl)cc2)c1	-11.2	4.5	2.6	.	6.2	0.557	2.3
Cc1csc(C(C#N)C(=O)c2cc3ccccc3o2)n1 (centres undefined)	9.4	-0.8	14.1	.	3.8	0.663	1.9
COC(=O)C1=C(C)n2nnnc2NC1c1ccc(Cl)cc1 (centres undefined)	6.1	-8.3	1.0	.	3.0	0.728	3.1
CC(=O)C1=C(C)NC(=O)CC1c1ccccc1Cl (centres undefined)	-0.7	4.2	2.1	i	-0.7	0.727	-2.3
Cc1ccc2cc(CCNC(=O)c3cccs3)c(=O)[nH]c2c1	.	-12.9	.	i	-0.4	.	2.4
Cc1cccc(C)c1NC(=O)CSc1nnc(-c2ccoc2C)n1CCc1ccccc1	8.0	19.9	2.2	.	-0.1	0.715	-9.0
N#Cc1ccc2nc3c(nc2c1)CCCC3	.	3.4	2.6	i	-0.9	0.622	1.8
COc1cccc(OCCn2c(C)c(/C=N/n3cnnc3)c3ccccc32)c1	-5.0	10.3	.	.	1.1	.	-2.2
CC(C)(C)C(=O)Nc1cccc(-c2nc3ccccc3[nH]2)c1	0.4	-10.9	-3.8	.	-2.0	0.71	4.2
COc1ccc(C(=O)Nc2cc(-c3nn4c(C)nnc4s3)ccc2C)cc1	3.6	-8.3	3.6	i	1.5	0.731	-1.3

Entries listed so far that have bromine:
SMILES	ALR inh	B2AR ag	UCH37 DUB inh	FGF22 binding	HNF4A DNA FP	Ecoli growth	LANA-H2A inh
CCC(=O)N1CCc2cc(Br)c(S(=O)(=O)CCC(=O)NCCc3ccccc3)cc21	.	-7.4	0.6	.	-1.8	0.675	.
Cc1ccc(NC(=O)C2CCCO2)c(Br)c1 (centres undefined)	-0.5	-0.1	3.3	i	4.8	0.653	4.3

Later entries
SMILES	ALR inh	B2AR ag	UCH37 DUB inh	FGF22 binding	HNF4A DNA FP	Ecoli growth	LANA-H2A inh
COC(=O)c1ccccc1NS(=O)(=O)c1ccc(F)cc1	-3.5	1.7	6.7	.	-5.2	0.652	8.3
COCCCN1C(=O)C(O)=C(C(C)=O)C1c1cccc(F)c1 (centres undefined)	-3.5	3.2	10.0	.	-0.3	0.746	0.9
Cc1cc2c(c(SCC(=O)NCCc3ccccc3)n1)C(=O)OC2	.	-8.2	1.5	.	3.2	0.728	2.6
COc1ccc2cc(-c3[nH]ncc3CNCCn3nc(C)cc3C)ccc2c1	-22.8	-5.4	-1.4	.	8.1	0.688	1.2
CC(=O)Nc1sc2c(c1C(c1ccccc1Cl)N1CCN(CCO)CC1)CCCC2 (centres undefined)	32.5	1.2	8.6	i	0.8	0.725	-2.2
CC/C(Cc1ccccc1)=N/NC(=O)c1cccc(Br)c1	5.9	6.1	.	.	-5.8	.	1.5
COc1cc(/C=C/C(=O)N2CCN(C)CC2)cc(S(=O)(=O)N2CCc3ccccc32)c1OC	-18.9	-1.7	0.8	i	-1.4	0.729	0.3
CCOc1ccc(S(=O)(=O)NCCC(=O)NCC(c2cccs2)N2CCOCC2)cc1 (centres undefined)	-1.9	-8.0	-1.1	i	0.3	0.681	1.4
O=C(c1ccc(Cl)cc1)N1C2C=CC(C2)C1(C(F)(F)F)C(F)(F)F (centres undefined)	-3.7	2.2	-0.8	i	-0.3	0.63	2.1
CC(NC(=O)c1ccc(N2CCNCC2)c([N+](=O)[O-])c1)C12CC3CC(CC(C3)C1)C2 (centres undefined)	-1.8	.	3.8	.	.	0.67	-6.2
COc1ccccc1NS(=O)(=O)c1cccc(NC(=O)CCNC(=O)c2ccccc2OC)c1	.	12.5	1.9	i	-2.3	0.659	-3.3
c1ccc2c(CCc3ccncc3)cccc2c1	.	1.0	3.9	i	-3.0	0.667	.
N#Cc1cccc(NC(=O)NCCc2c[nH]c3ccccc23)c1	.	4.2	4.4	i	-3.9	0.685	2.2
CC(=O)/C=C(\C)Nc1ccc(-c2cnc(-c3ccccc3)o2)cc1	.	9.0	-160.5	.	-0.2	0.733	-0.6
Cc1cc2c(NS(=O)(=O)c3ccc(F)cc3)cccc2nn1	-15.3	1.7	3.3	i	1.4	0.646	-1.2
O=C(Nc1ccc2c(c1)OCCO2)c1ccccc1F	-8.9	6.7	4.1	.	1.6	0.741	-3.7
CCOC(=O)N1CCN(S(=O)(=O)c2ccc(OCC)c(C)c2)CC1	-2.9	9.3	5.7	.	-2.0	0.722	0.4
O=c1[nH]c(C2CCN(S(=O)(=O)c3ccc([N+](=O)[O-])cc3)CC2)nc2c1nnn2Cc1ccccc1	-3.1	13.2	1.9	i	-0.6	0.67	2.6
COc1ccc(C(=O)Nc2ccccc2C(=O)N2CCCCCC2)cc1OC	-5.1	0.2	3.0	i	2.1	0.694	-1.5
Cn1c(C(=O)N2CCC(C(=O)N3CCOCC3)CC2)cc2sccc21	-26.0	-0.1	3.3	i	3.0	0.8	4.4
COc1ccc2ccccc2c1-c1sc(Nc2ccccc2)n[n+]1-c1ccc(F)cc1	-0.6	27.0	4.4	i	3.7	.	-2.2
CCn1c(CCCCc2n[nH]c(=S)n2CC)n[nH]c1=S	17.8	3.6	3.7	i	-1.4	0.683	2.1
C#CCNC(=O)C1=C[C@@H](c2coc3ccccc3c2=O)[C@H](CCCO)[C@@H](OCC)O1	-3.8	-9.6	4.1	i	4.1	.	0.0
O=C(c1cccc(S(=O)(=O)N2CCOCC2)c1)N1CCN(Cc2ccc3c(c2)OCO3)CC1	-41.6	-5.8	4.2	i	-0.3	0.663	4.4
COCCCNS(=O)(=O)c1ccc(Oc2ncc(C(F)(F)F)cc2Cl)cc1	6.3	-9.2	1.6	.	-0.8	0.678	0.5
COc1ccc(NC(=S)NC(=O)c2cncc(Br)c2)cc1	5.3	-1.2	-0.7	i	-0.1	0.694	-1.0
CCc1nc(SCC(=O)OC(C)C)c2ccccc2n1	-9.5	0.8	2.8	i	-39.9	0.694	6.9
O=S(=O)(/N=C(/Nc1ccccn1)c1ccccc1)c1ccccc1	0.7	-8.6	.	i	-0.8	.	-0.2
COC(=O)c1ccccc1-c1ccc(/C=C2\C(=O)N(c3ccccc3)N=C2c2ccccc2)o1	0.7	4.4	2.4	.	-5.1	0.742	-2.5
Cc1ccc(-n2ncc3c(NCCCOC(C)C)ncnc32)c(C)c1	-10.0	9.5	1.1	.	-2.0	0.756	0.9
CCn1nc(C)c(/C=N/NC(=O)c2c[nH]c3ccccc23)c1C	7.0	-9.4	.	.	-2.4	.	-8.6

By substructure, the entries above with a CF3 group (three)
SMILES	ALR inh	B2AR ag	UCH37 DUB inh	FGF22 binding	HNF4A DNA FP	Ecoli growth	LANA-H2A inh
COc1cc2nc(CN3CCOCC3)n(CC(=O)NCC(F)(F)F)c(=O)c2cc1OC	-1.3	-5.7	0.6	i	-0.9	0.7	-2.3
O=C(c1ccc(Cl)cc1)N1C2C=CC(C2)C1(C(F)(F)F)C(F)(F)F (centres undefined)	-3.7	2.2	-0.8	i	-0.3	0.63	2.1
COCCCNS(=O)(=O)c1ccc(Oc2ncc(C(F)(F)F)cc2Cl)cc1	6.3	-9.2	1.6	.	-0.8	0.678	0.5
